Screening data deposited in PubChem by National Center for Advancing Translational Sciences (NCATS).
gsp antagonist: antagonizes gsp, the McCune-Albright syndrome mutation. gsp-mutant cells, cAMP HTRF, 30 min; control for the full effect not named in the record. Potency, µM (top dose mostly 76.9 µM), without a hit: at the highest dose activity change, negative = inhibition, hits mostly inhibitors. actives 0.4% (n = 340,000). AID 624288; active = falling curve of any shape with a large fitted effect; inconclusive = falling curve, mostly with a smaller effect; inactive = flat or rising curve; cell line not stated here;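 also: intracellular cAMP measured with PDE inhibitor Ro 20-1724 present during compound exposure; potency is read from the fitted curve at half-maximal effect; % is scaled to controls: 0 for no effect and ±100 for the full control effect; nearly all actives have a fitted effect of over 65% in size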
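HTRF cAMP read-out (cAMP-d2 plus anti-cAMP antibody-K in lysis buffer, 30 min RT). Before lysis, cells are exposed to compounds with […] for 30 min at 37C in DPBS containing Ca/Mg, BSA and Tween 20.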
CtBP-E1A inh: blocks the CtBP interaction with E1A. AlphaScreen GST-E1A/His-CtBP binding, 1536-well; active compounds read low; control for the full effect not named in the record. activity change, % (no concentration beside the values). actives 0.49% (n = 340,000); in the data active means activity change below about -65%; inconclusive means about -30% to -65%; inactive means above about -30%; also: % is scaled to controls: 0 for no effect and ±100 for the full control effect
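Steps: dispense buffer (Tris pH 8.0, NaCl 300 mM, TCEP 1 mM, BSA, Tween 20); add 5X protein mix (GST-E1A, His-CtBP, 125 nM each); pin 23 nL compound; 2 h at 37 °C, dark; add 5X beads (50 ug/mL); 1 h; read.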
D2 agonist: activates the human D2 dopamine receptor; activation, % (no concentration beside the values); actives 0.084% (n = 360,000); DiscoveRx PathHunter D2 beta-arrestin, luminescence, 90 min; 100% = 57 uM dopamine signal; P14416; AID 624465; in the data active = activation above about 40%; inconclusive = about 15% to 40%; inactive = below about 15%; also: compound concentration not given in the record; the text of the record calls up to 30% inactive
Target sequence (P14416 whole entry, looked up): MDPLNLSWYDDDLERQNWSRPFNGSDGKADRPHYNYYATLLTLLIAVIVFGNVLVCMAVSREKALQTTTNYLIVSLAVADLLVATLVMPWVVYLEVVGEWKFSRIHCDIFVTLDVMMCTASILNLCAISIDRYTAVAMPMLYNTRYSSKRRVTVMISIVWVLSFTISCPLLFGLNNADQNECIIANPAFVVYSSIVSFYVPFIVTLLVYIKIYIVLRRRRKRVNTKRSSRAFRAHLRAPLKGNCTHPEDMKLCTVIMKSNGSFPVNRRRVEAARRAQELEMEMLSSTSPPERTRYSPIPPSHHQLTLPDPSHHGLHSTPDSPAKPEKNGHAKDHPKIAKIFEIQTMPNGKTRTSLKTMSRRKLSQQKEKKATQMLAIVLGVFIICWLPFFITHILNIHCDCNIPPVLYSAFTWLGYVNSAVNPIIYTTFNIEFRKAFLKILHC
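Agonist mode: compounds alone added to overnight-plated D2 PathHunter cells for 90 min at 37 C, with 57 uM final dopamine (EC100) defining full response. Beta-arrestin recruitment detected by chemiluminescent reagent, read after 1 h at ambient temperature.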
D2 potentiator: human D2 receptor positive allosteric modulation; P14416; DiscoveRx D2 beta-arrestin cells, luminescence, 90 min; 100% = 57 uM dopamine signal; potentiation, % (no concentration beside the values); actives 0.23% (n = 360,000); active = potentiation of 50% or more; inconclusive = 30% to 50%; inactive = 30% or less;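 also: compound concentration not given in the record; tested on top of an EC20 dose of dopamine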
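PathHunter D2 cells, attached overnight at 37 deg C, received compound in DMSO plus dopamine at EC20 (50 nM final) for 90 min at 37 deg C. Beta-arrestin recruitment was read as luminescence after 1 h with detection reagent at ambient temperature.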
Six1-Eya2 inh: Six1/Eya2 interaction inhibition; AlphaScreen GST-Six1/His-Eya2 binding, biochemical; active compounds read low; control for the full effect not named in the record; activity change, % (no concentration beside the values); actives 0.56% (n = 360,000); AID 651725; in the data active = activity change below about -65%; inconclusive = about -30% to -65%; inactive = above about -30%; also: % is scaled to controls: 0 for no effect and ±100 for the full control effect
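AlphaScreen with GST-Six1 and His-Eya2 (5X mix: 250 nM and 500 nM), glutathione donor and nickel acceptor beads; buffer 50 mM Tris pH 8.0, 300 mM NaCl, 1 mM TCEP; 1 h at 37 C in the dark.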
gsp agonist: gsp mutant agonism; Potency, µM (series often up to 76.9 µM), without a hit: top-dose activation (cAMP increase), most hits filed as activators; gsp mutant cells, cAMP HTRF, 30 min; control for the full effect not named in the record; actives 0.13% (n = 340,000); active = well fitted activation curve with a large enough effect; inconclusive = small, poorly fitted or top-dose-only effect, or another doubt; inactive = no such curve, though single readings can be large or run the other way; cell line not stated here;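 also: phosphodiesterase inhibitor Ro 20-1724 added with compounds to block cAMP breakdown; potency is read from the fitted curve at half-maximal effect; nearly all actives have a fitted effect of over 60% in size; about a fifth of the inactives were tested at one dose only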
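Cells stably selected in G418 were plated at 2000/well, grown 16-24 hr, then given compounds in DMSO with the PDE inhibitor […] (300 uM solution added) for 30 min at 37C; cAMP was read by HTRF.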
The depositor's hits bear a star; ? = inconclusive; nt = no result given; [ ] = remark or other dose.

Values run as follows: gsp antagonist, CtBP-E1A inh, D2 agonist, D2 potentiator, Six1-Eya2 inh, gsp agonist
- Brc1ccc(OCCOCCN2CCOCC2)cc1
→ ?, 4, -1.3, -9, 2, -2%
- COc1ccc(CC(=O)Nc2ccc3nc(C)sc3c2)cc1OC
→ 2%, 3, 2.6, -3, 0, 7%[15.4 µM]
- Cc1n[nH]c(=O)nc1NCc1ccc(Cl)cc1
→ 13%, -1, -0.7, -1, 2, -3%
- CCc1c(C)nc(SCC(=O)N2CCN(c3ccccc3OC)CC2)[nH]c1=O
→ -18%, 0, 2.0, -18, -8, 4%
- Cc1ccc(-n2c(=O)c(C#N)cc3c(=O)n4cccc(C)c4nc32)cc1
→ 9%, 0, -3.7, -9, -1, 2%
- Cc1[nH]n(-c2ccccc2)c(=O)c1N=Nc1cccc(Cl)c1
→ -4%, nt, 1.2, -7, ?, 4%
- COc1ccccc1CN1C(=S)SC(C)(C)C1NO (centres undefined)
→ -7%, -1, 3.1, 14, 2, 3%
- Cc1ccccc1C(=O)c1c[nH]c(C(=O)NCCc2ccccn2)c1
→ 4%, 1, -0.8, -5, -2, -15%[15.4 µM]
- Cc1ccc(NC(=O)c2cnccn2)cc1
→ 9%, 7, -0.2, 10, -8, 12%[15.4 µM]
- C=C(C)CNC(=S)N1CCNC(=O)C1CC(=O)OC (centres undefined)
→ 12%, 3, -0.8, -15, 1, -3%
- CCC(=O)NCCNc1nc2cc(C)c(C)cc2cc1C#N
→ 9%, 4, -1.2, 8, 0, -19%
- O=C(NCCc1ccc(Cl)cc1)C1CCN(S(=O)(=O)N2CCCCC2)CC1
→ 6%, 7, 0.1, -12, 1, ?
- O=C(Cc1ccc(Br)cc1)Nc1ccc(Cl)cc1
→ 10%, 2, -2.4, -7, 2, -7%
- CC(C)(C)OC(=O)C[C@H]1C/C=C\C[C@@H](CC(=O)NCCO)C(=O)NC[C@H](c2ccccc2)OC1=O
→ 9%, 1, -0.7, nt, 9, nt
- Cc1ccc(Cl)cc1N1CCN(C(=O)CNC(=O)c2ccc(Br)o2)CC1
→ ?, 10, -2.4, -10, -7, -6%

Among those listed so far, these have a cyano group:
Values run as follows: gsp antagonist, CtBP-E1A inh, D2 agonist, D2 potentiator, Six1-Eya2 inh, gsp agonist
- Cc1ccc(-n2c(=O)c(C#N)cc3c(=O)n4cccc(C)c4nc32)cc1
→ 9%, 0, -3.7, -9, -1, 2%
- CCC(=O)NCCNc1nc2cc(C)c(C)cc2cc1C#N
→ 9%, 4, -1.2, 8, 0, -19%

The listing continues.
Values run as follows: gsp antagonist, CtBP-E1A inh, D2 agonist, D2 potentiator, Six1-Eya2 inh, gsp agonist
- CC1Oc2cc3oc4c(O)c5c(cc4c(=O)c3c(O)c2C1(C)C)C=CC(C)(C)O5 (centres undefined)
→ -3%, -10, 3.2, -31, -8, nt
- C[C@H](NC(=O)c1ccc(Cl)cc1)C(=O)NCCc1ccc(S(N)(=O)=O)cc1
→ 6%, 3, -5.5, -7, 11, 7%[15.4 µM]
- Cc1c(C(=O)O)cccc1-n1c(C)cc(/C=C(/C#N)C(=O)NCc2ccccc2)c1C
→ -5%, -1, -1.4, -2, 48, 9%
- CCOC(=O)N1CCC(NS(=O)(=O)c2ccc(C)c(Cl)c2)CC1
→ 2%, 0, -0.7, -3, 5, 0%[15.4 µM]
- CCOC(=O)c1c(NC(=O)COc2ccc3ccc(=O)oc3c2)sc(C(=O)N(C)C)c1C
→ 13%, -2, 2.4, 3, -4, -19%
- CCOc1cc(Br)c(C(C)NC(=O)c2cccnc2)cc1OCC (centres undefined)
→ -9%, 5, -0.8, -1, 8, -39%
- O=C(COC(=O)CN=C1NS(=O)(=O)c2ccccc21)Nc1ccccc1OC(F)F
→ -9%, 0, -0.6, -8, 37, 2%[15.4 µM]
- Cc1ccc2nc(-c3ccc(-c4ccccn4)s3)cn2c1
→ -8%, 7, 0.2, -7, 10, -11%[15.4 µM]
- Cc1cccc(N2CCN(C(=O)c3nn(C)c4c3CS(=O)(=O)c3ccccc3-4)CC2)c1C
→ -3%, nt, 0.0, -9, -9, 3%
- C/C(CCC(C)C)=N\NC(=O)COc1ccccc1-c1ccccc1
→ 9%, 0, 0.1, -2, -2, 3%[15.4 µM]
- COc1cc(C(=O)NCc2ccco2)cc(OC)c1OC
→ 12%, 0, -3.7, ?, 5, -34%[inhibitor]
- CCOC(=O)/C(=N\Nc1ccccc1Cl)N1CCN(c2ccccc2OC)CC1
→ -4%, -10, -3.4, -10, -10, 21%
- CCCOc1c(OC)cc(Cl)cc1C1NC(=O)NC(C)=C1C(=O)NCc1ccccc1 (centres undefined)
→ -1%, 5, 2.4, -6, 4, -3%
- CN(C)c1nnnn1Cc1ccc(Cl)cc1Cl
→ 8%, 0, 4.4, 4, 0, -6%
- CN(Cc1ccccc1Cl)C(=O)C1CCC(=O)N(CCc2cccc(F)c2)C1 (centres undefined)
→ 4%, -12, -2.4, -6, 1, 4%
- C=CCn1c(NC(C)c2cc(Cl)ccc2O)nc2ccccc21 (centres undefined)
→ ?, 2, 0.5, -9, 1, -5%
- S=C1NCN(Cc2ccco2)CN1c1cccc2ccccc12
→ 10%, -5, -4.0, -11, -5, -26%
- CCCCN=C(C)C1=C(O)CSC1=O
→ 6%, 18, 0.3, -1, 9, 4%
- Cc1cc(C)cc(-c2nc(-c3ccncc3)no2)c1
→ 1%, 0, -4.2, -6, -3, 23%
- CCCCn1c(N)c(N(CC)C(=O)c2cc(C)cc(C)c2)c(=O)[nH]c1=O
→ 7%, 4, 1.2, -5, 5, -44%[inhibitor]
- Cc1ccc(SC(C)C(=O)NCc2cccnc2)cc1 (centres undefined)
→ 19%, 1, -2.7, -7, 5, 1%
- COc1ccc(C(=O)N(C)Cc2ccc(C)o2)cc1OC1CCN(C(C)=O)CC1
→ 0%, 1, -3.3, -8, -9, 6%
- Clc1ccc(Nc2c3c(nc4ncnn24)CCC3)cc1
→ -13%, nt, -4.1, -19, -6, 6%
- CCn1nnc(NC(=O)c2ccco2)n1
→ 16%, -5, -1.9, 4, 3, -2%[15.4 µM]
- COc1ccc([C@H]2C[C@H](n3cc(COC(=O)c4ccccc4)nn3)[C@@H](O)CN2CC2CCCCC2)cc1
→ nt, 5, -6.0, 0, -2, -33%[inhibitor]
- CC(=O)c1c(C)n(CC(=O)NCc2ccco2)c2ccccc12
→ -4%, -4, 6.8, -4, -6, -6%
- Cc1ccc(C(=O)N2CCN(S(=O)(=O)c3ccc(Br)cc3)CC2)o1
→ -6%, -5, -3.8, -8, -7, 3%[15.4 µM]
- COc1ccc(/C=C/C(=O)NNc2cc(=O)n(C)c(=O)n2C)cc1OC
→ 13%, -4, -1.7, -14, -10, -23%
- Brc1cccc(CNCc2cccs2)c1
→ 7%, 15, -1.7, -24, 22, 2%
- Cc1ccc(S(=O)(=O)N2CCOCC2)cc1C(=O)OCC(=O)NCCc1ccc(F)cc1
→ -2%, -13, -1.9, -2, 2, -1%
- CCOC(=O)CN(C(=O)CSc1nnc(-c2ccncc2)n1CCCOC)c1ccccc1
→ -10%, -1, -0.3, -9, 1, 17%
- O=C(NC(=S)Nc1cc(-c2nc3ccccc3[nH]2)ccc1Cl)c1ccc2c(c1)OCO2
→ -3%, -3, 0.1, 27, -8, 21%
- O=C(COc1nsnc1N1CCOCC1)Nc1ccc(Br)cc1
→ -6%, -14, -1.2, -3, -25, 16%[15.4 µM]
- COc1ccc(/C=N/n2cnnc2SCc2ccccc2)cc1
→ -8%, -2, -2.3, -4, -9, -4%
- COc1cc(C(=O)Nc2ccc3c(c2)C(=O)N(CCC(=O)O)C3=O)cc(OC)c1OC
→ -1%, 2, -1.5, 20, -11, ?
- C/C(CC(C)C)=N\NC(=O)Nc1ccccc1
→ 12%, 3, -0.3, 24, 5, -5%[15.4 µM]
- O=c1[nH]c(CSc2nnc(COc3ccccc3)n2-c2ccccc2)nc2ccccc12
→ 12%, -16, 0.2, -29, -4, 0%
- COc1ccccc1NC(=O)Nc1nc(CC(=O)Nc2ccccc2F)cs1
→ -12%, 0, -2.4, -10, -15, 1%
- COc1ccc(N2CCN(C(=O)c3ccc(COc4ccc([N+](=O)[O-])cc4)o3)CC2)cc1
→ -33%, -26, 1.1, 13, ?, ?
- O=C1Nc2cc(Cl)c(Cl)cc2N(O)N1c1ccccc1Cl
→ 20%, -16, 7.8, -4, 12, -17%[15.4 µM]
- Cc1ccc2c(N)c(C)ccc2c1
→ -3%, -6, -3.2, -3, -6, -31%[inhibitor]
- N/C(=N\OC(=O)c1ccc(Cl)cc1[N+](=O)[O-])c1cccnc1
→ -11%, -9, ?, 18, -13, -12%
- CC(O)(c1cccs1)C(C(=O)O)c1ccccc1 (centres undefined)
→ 9%, 5, -3.2, -5, -11, 3%
- Cc1onc(-c2ccccc2Cl)c1C(=O)N1CCN(c2cccc(Cl)c2)CC1
→ 4%, 1, -1.0, -4, -11, -17%
- O=C(CCCCl)NC(=S)Nc1ccc(CN2CCOCC2)cc1
→ 9%, 0, 0.9, -20, 12, -7%[15.4 µM]

In the list so far, eight have a furan ring, fused or not:
Values run as follows: gsp antagonist, CtBP-E1A inh, D2 agonist, D2 potentiator, Six1-Eya2 inh, gsp agonist
- Cc1ccc(Cl)cc1N1CCN(C(=O)CNC(=O)c2ccc(Br)o2)CC1
→ ?, 10, -2.4, -10, -7, -6%
- COc1cc(C(=O)NCc2ccco2)cc(OC)c1OC
→ 12%, 0, -3.7, ?, 5, -34%[inhibitor]
- S=C1NCN(Cc2ccco2)CN1c1cccc2ccccc12
→ 10%, -5, -4.0, -11, -5, -26%
- COc1ccc(C(=O)N(C)Cc2ccc(C)o2)cc1OC1CCN(C(C)=O)CC1
→ 0%, 1, -3.3, -8, -9, 6%
- CCn1nnc(NC(=O)c2ccco2)n1
→ 16%, -5, -1.9, 4, 3, -2%[15.4 µM]
- CC(=O)c1c(C)n(CC(=O)NCc2ccco2)c2ccccc12
→ -4%, -4, 6.8, -4, -6, -6%
- Cc1ccc(C(=O)N2CCN(S(=O)(=O)c3ccc(Br)cc3)CC2)o1
→ -6%, -5, -3.8, -8, -7, 3%[15.4 µM]
- COc1ccc(N2CCN(C(=O)c3ccc(COc4ccc([N+](=O)[O-])cc4)o3)CC2)cc1
→ -33%, -26, 1.1, 13, ?, ?
